Bioassay records as filed in PubChem BioAssay.
Vaccinia Venus: qHTS for Stage-Specific Inhibitors of Vaccinia Orthopoxvirus: Venus Reporter Primary qHTS; Vaccinia virus Venus reporter expression, fluorescence; Potency, µM (top dose mostly 36.5 µM), for the others: top-dose activity change, negative = inhibition, usual class: inhibitors; 0.46% of 330,000 active; AID 720580, 2013; active means well fitted inhibition curve with a large enough effect; inconclusive means small, poorly fitted or top-dose-only effect; inactive means no such curve, though single readings can be large or run the other way; tested in A549 cells; note: nearly all actives have a fitted effect of over 30% in size; inactives centre near -10
VACV mCherry inh: qHTS for Stage-Specific Inhibitors of Vaccinia Orthopoxvirus: mCherry Reporter Primary qHTS; Vaccinia virus mCherry reporter infection, fluorescence; about a quarter of the inactives have no number; Potency, µM (top dose mostly 36.5 µM), inactives show at the highest dose activity change, negative = inhibition, hits mostly inhibitors; 0.63% of 310,000 active; AID 720579, 2013; active = well fitted inhibition curve with a large enough effect; inconclusive = small, poorly fitted or top-dose-only effect; inactive = no such curve, though single readings can be large or run the other way; tested in A549 cells; note: nearly all actives have a fitted effect of over 35% in size; inactives centre near -10
An asterisk follows results filed as active; i = inactive; ? = inconclusive; . = no result given; & = joins results of further samples; [ ] = another dose, or the depositor's remark. % is set by controls: 0 for no effect and ±100 for the full control effect; potency is the fitted concentration of half-maximal effect.

Order of values: Vaccinia Venus	VACV mCherry inh
C=CCSc1nnc2nc3[nH]c4c(C)cccc4c3nn12
 : ?	.
Cc1sc2ncn(CC(=O)NCCCN3CCC(C)CC3)c(=O)c2c1S(=O)(=O)N1CCC(C)CC1
 : 3%	-1%
O=C(NC(=S)Nc1ccc2c(c1)OCCO2)c1ccco1
 : -12%[7.34 µM]	i[7.34 µM]
O=C(NCc1ccc(F)cc1)c1ccc(CS(=O)Cc2ccc(Cl)cc2)o1 (stereo not drawn)
 : -14%	-16%
CCc1nnc(SCc2nc(-c3cccc(C)c3)oc2C)c2cc3sc(C)cc3n12
 : 1%	i
c1ccc2nc(N3CCOCC3)c(N3CCOCC3)nc2c1
 : -15%	i
Nc1nnc(CSCc2ccc(Cl)cc2)s1
 : -14%	-3%
CCOC(=O)c1c(-c2ccccc2)csc1NC(=O)c1cc(-c2ccc(C)c(F)c2)on1
 : 12%	16%
O=C(N/N=C/c1ccc([N+](=O)[O-])s1)c1cccc(Br)c1
 : ?	?
O=S(=O)(CC(c1ccccc1)N1CCCCC1)c1ccc(Cl)cc1 (stereo not drawn)
 : -20%	-11%
Brc1ccccc1-n1nnc(-c2nccs2)n1
 : -15%	-8%
COc1ccc(CN(C)C(=O)Cn2cnc(C(=O)Nc3ccc(C)c(C)c3)n2)cc1OC
 : -16%	i
CCc1cc(=O)[nH]c(SCC(=O)NCC2CCCO2)n1 (stereo not drawn)
 : 4%	-8%
COc1cccc(Nc2nnc(SCC(=O)N3CC(C)OC(C)C3)s2)c1 (stereo not drawn)
 : -7%	-14%
O=C(C1CCC(=O)N1Cc1ccc(F)cc1)N1CCC2(CC1)OCCO2 (stereo not drawn)
 : 3%	.
Cc1cn([C@H]2C[C@H](O)[C@@H](CNC(=O)c3ccccn3)O2)c(=O)[nH]c1=O
 : 6%	-10%
OC1CCN(C(=S)NCCc2ccccc2)CC1
 : -3%	-9%
CCOc1ccc(C(=O)c2cn(CC(=O)Nc3ccc(F)cc3)c3cc4c(cc3c2=O)OCO4)cc1
 : -12%	-8%
Cc1nccn1CCN(C)Cc1cn(Cc2ccccc2)nc1-c1ccc2c(c1)OCO2
 : -7%	-10%
COc1cc2cnc(Cl)nc2cc1OC
 : -10%	i
Cc1ccc(C(=O)NC2CCCC(C)C2C)cc1S(=O)(=O)N1CCCCC1 (stereo not drawn)
 : -12%	-26%
CC(=O)c1ccc(NC(=O)CN2C(=O)COc3ccc(S(=O)(=O)N4CCCC4)cc32)cc1
 : -16%	i
COc1ccc(N2C(=O)/C(=C\c3ccco3)N=C2SCC(=O)N(C(C)C)C(C)C)cc1Cl
 : -6%	i
COc1ccc(OCc2nnc(SCC(=O)NC3CC3)n2C)cc1
 : -13%	-8%
CC(=O)c1ccc(-c2cnc3c(NC=O)cc(-c4cnn(C)c4)cn23)cc1
 : -20%	-3%
COC(=O)c1c(-c2cccs2)csc1NC(=O)COc1ccc(C(C)C)cc1
 : 0%	-3%
O=C1CC(SC2=NCCS2)C(=O)N1c1ccc(Cl)cc1 (stereo not drawn)
 : -7%	-14%
Cn1c(C(=O)N2CCC(C(=O)N3CCN(Cc4ccc5c(c4)OCO5)CC3)CC2)cc2sccc21
 : -29%	-3%
COc1ccccc1N1CCN(C(=O)CN2C(=O)COc3ccc(S(=O)(=O)N4CCC(C)CC4)cc32)CC1
 : -3%	-10%
COC(=O)c1cc(C)nc2c1c(=O)nc(SCc1ccccc1F)n2C1CC1
 : -5%	-11%

In another format: entries from further up
molecule: Cc1cn([C@H]2C[C@H](O)[C@@H](CNC(=O)c3ccccn3)O2)c(=O)[nH]c1=O
  Vaccinia Venus: 6%
  VACV mCherry inh: -10%

molecule: OC1CCN(C(=S)NCCc2ccccc2)CC1
  Vaccinia Venus: -3%
  VACV mCherry inh: -9%

molecule: CCOc1ccc(C(=O)c2cn(CC(=O)Nc3ccc(F)cc3)c3cc4c(cc3c2=O)OCO4)cc1
  Vaccinia Venus: -12%
  VACV mCherry inh: -8%

A draw from above in order of number of heavy atoms, high to low:
Order of values: Vaccinia Venus	VACV mCherry inh
Cc1sc2ncn(CC(=O)NCCCN3CCC(C)CC3)c(=O)c2c1S(=O)(=O)N1CCC(C)CC1
 : 3%	-1%
CCc1nnc(SCc2nc(-c3cccc(C)c3)oc2C)c2cc3sc(C)cc3n12
 : 1%	i
COc1cccc(Nc2nnc(SCC(=O)N3CC(C)OC(C)C3)s2)c1 (stereo not drawn)
 : -7%	-14%
C=CCSc1nnc2nc3[nH]c4c(C)cccc4c3nn12
 : ?	.

(listing goes on)
Order of values: Vaccinia Venus	VACV mCherry inh
CSCCC(C(=O)NC(C)(C)C)n1c(-c2ccccc2)nc2ccccc21 (stereo not drawn)
 : -2%	6%
O=C(COc1cccc2ccccc12)NNC(=O)c1cccs1
 : 4%	-13%
CCCNC(=O)COC(=O)/C=C/c1ccc(C)o1
 : -12%	-8%
Cc1ccc(C(=O)N/N=C\c2cc3c(cc2Br)OCO3)s1
 : ?	-21%
CCOC(=O)C1CCCN(CC(=O)Nc2nc(-c3ccccc3)cs2)C1 (stereo not drawn)
 : -23%	-9%
CN(C(=O)C(=O)c1cn(CC(=O)N2CCCC2)c2ccccc12)C1CCCCC1
 : -5%	i
COc1ccc2cc(C(=O)C3CCCN(Cc4cccc(C)n4)C3)ccc2c1 (stereo not drawn)
 : ?	?
N#Cc1ccc(CSc2nnc(NC(=O)CCc3nc4ccccc4c(=O)[nH]3)s2)cc1
 : -4%	i
CC(C(=O)c1ccc(-c2ccccc2)cc1)[n+]1cccc(C(N)=O)c1 (stereo not drawn)
 : -7%	-14%
O=c1[nH]c2ccc(Cl)cc2c(-c2ccccc2)c1SC(=S)N1CCCCC1
 : ?	.
N#CC1=C(SCc2ccc(C#N)cc2)N=C(N)C(c2nc(-c3ccccc3)cs2)C12CCCCC2 (stereo not drawn)
 : -28%	.
CCC/C(O)=C1\C(=O)CC(C)(C)CC1=Nc1cccc([N+](=O)[O-])c1
 : -21%	-15%
COc1ccc(S(=O)(=O)N2CCCC2C(=O)Nc2ccc(C(C)=O)cc2)cc1 (stereo not drawn)
 : 8%	8%
CC(C(=O)OC1CC2CCC(C1)N2C)c1ccc(Br)cc1 (stereo not drawn)
 : -19%	-27%
COc1ccc(NC(=O)c2cc([N+](=O)[O-])ccc2N2CCCC2)cc1
 : -1%	-4%
COC12CCC3(CC1C(C)(O)C(C)(C)C)[C@H]1Cc4ccc(OC5OC(C(=O)O)[C@@H](O)C(O)[C@H]5O)c5c4[C@@]3(CCN1CC1CC1)C2O5 (stereo partly drawn)
 : -18%	i
O=C(OCc1cc(=O)n2c(n1)sc1ccccc12)c1ccc2c(=O)n3c(nc2c1)CCC3
 : ?	-13%
CCCCCC(=O)NC(Nc1ccc(S(N)(=O)=O)cc1)C(Cl)(Cl)Cl (stereo not drawn)
 : -25%	-5%
CCN(C(=O)Cn1cc(C(F)(F)F)ccc1=O)c1c(N)n(Cc2ccccc2)c(=O)[nH]c1=O
 : -13%	i
CCc1ccc(C(=O)COC(=O)C(CCSC)NC(=O)c2ccccc2)cc1 (stereo not drawn)
 : -7%	i
O=C(O)C(S)[C@@H](S)C(=O)O (stereo partly drawn)
 : -3%	-9%
O=C(COc1cccc2ccccc12)Nc1nc2ccccc2[nH]1
 : -20%	.
COC(=O)c1ccc(NS(=O)(=O)c2cc(C)ccc2OC)cc1
 : -28%	i
COC(=O)c1cc(C)sc1NC(=O)CN1CCN(C(=O)c2ccco2)CC1
 : -21%	i
Clc1cccc(CNc2nc(-c3cccnc3)nc3ccccc23)c1
 : ?	?
CCCCc1ccc(-c2nc(-c3ccncc3)no2)cc1
 : -4%	.
COC(=O)C1=C(C)N(Cc2ccccc2)C(=NCc2cccc(C(F)(F)F)c2)N[C@H]1c1cccc(F)c1
 : 13µM*	?
O=C(Cc1cccc2ccccc12)Nc1cccnc1
 : -16%	i
Cn1ccnc1C(=O)c1ccc(Cl)c(S(=O)(=O)N2CCOCC2)c1
 : -9%	0%
O=C(COc1ccccc1[N+](=O)[O-])N1CCN(S(=O)(=O)c2ccccc2)CC1
 : -9%	-2%

(continued)
Order of values: Vaccinia Venus	VACV mCherry inh
COc1ccc(C(=O)Nc2nc(C)cs2)cc1S(=O)(=O)N1CCOCC1
 : -7%	-2%
CN(CC(=O)Nc1cccc(F)c1)C(=O)CCc1nc2ccccc2c(=O)[nH]1
 : 6%	-5%
COc1cccc(NC(=O)COC(=O)c2ccc3ccccc3n2)c1
 : -21%	-20%
Cc1ccc(NC(=O)c2cnccn2)cc1
 : -4%	-13%
c1ccc(-c2ccccc2OCCCN2CCCCC2)cc1
 : -15%	?
COC(=O)c1cnc(NNS(=O)(=O)c2ccc(Cl)cc2)nc1C(F)(F)F
 : -17%	i
COc1cccc(C(=O)n2ccc(-c3cccs3)n2)c1
 : -2%	i
CC(=O)Nc1nnc(SCc2cc(=O)c(OC(=O)c3ccccc3)co2)s1
 : -9%	2%
NC(=O)c1ccc(Sc2nnc(-c3cccs3)n2CC2CCCO2)c([N+](=O)[O-])c1 (stereo not drawn)
 : 11µM*	7.9µM*
Cc1ccc(C(C(=O)NC2CCCC2)N(C(=O)Cc2cccs2)c2ccc(C)c(C)c2)o1 (stereo not drawn)
 : ?	-14%
CCOC(=O)CN1C(=O)N[C@@H](c2ccccc2)[C@@H](C(=O)OC)[C@H]1C
 : -3%	-18%
CCOC(=O)c1cc(-c2ccc(OC)cc2)n(CCC(=O)NCCc2ccc(OCC)c(OCC)c2)c1C
 : -26%	?
COc1cccc(-c2nccc(-n3ccnc3)n2)c1
 : -3%	0%
COc1ccc(NC(=O)c2ccc(-c3ccc(F)cc3)o2)cc1OC
 : -22%	-11%
CC1=NN(c2ccc(S(=O)(=O)O)cc2C)C(=O)C1
 : -11%	i
CC(C)CN1CCC(=O)N(CCSc2ccccc2)CC1
 : -15%&-6%	-18%
O=C(c1ccccc1)C1CCN(c2ncccc2[N+](=O)[O-])CC1
 : -13%[7.34 µM]	-13%[7.34 µM]
CCOc1cc(C(=O)Nc2ccc(S(=O)(=O)NC3=NCCCCC3)cc2)cc(Br)c1OC
 : -29%	?
CN(C)C(=O)Oc1c(Cl)cc(Cl)c2cccnc12
 : -4%	i
O=C(CCNC(=O)c1ccccc1Cl)NCC12CC3CC(CC(C3)C1)C2
 : -3%	-11%
CN(C(=O)CSc1nnc2ccccn12)c1c(N)n(Cc2ccccc2)c(=O)[nH]c1=O
 : -16%	?
C/C(=N\Nc1c(F)c(F)c(Br)c(F)c1F)c1ccncc1
 : -14%	i
COc1ccc(C2C3=C(CC(C)(C)CC3=O)Oc3ncn4nc(-c5cccnc5)nc4c32)cc1 (stereo not drawn)
 : -4%	-16%
Cc1c(Cl)cnc(NC(=O)COC(=O)c2ccc3ncsc3c2)c1Cl
 : 2%	i
O=[N+]([O-])c1ccc(Cl)cc1N1CCCC1
 : -9%	i
CCN(CC)c1ccc(C(=O)NNC(=O)CCNC(=O)c2ccccc2)cc1
 : -17%	i
COc1ccccc1-c1cc(C(=O)Nc2c(C)nn(Cc3ccc(Cl)cc3)c2C)no1
 : ?	?
CCCc1ccc2c(N)c(C#N)sc2n1
 : -12%	-12%
Cc1ccc(C(=O)N2CCN(S(=O)(=O)c3ccccc3)CC2)s1
 : -11%	-18%
Cc1cc(Nc2ccc(C)c(Cl)c2)n2nc(-c3ccccc3)nc2n1
 : -12%	-20%

Next section, starting with the last 3 of the part before.
SMILES	Vaccinia Venus	VACV mCherry inh
CCCc1ccc2c(N)c(C#N)sc2n1	-12%	-12%
Cc1ccc(C(=O)N2CCN(S(=O)(=O)c3ccccc3)CC2)s1	-11%	-18%
Cc1cc(Nc2ccc(C)c(Cl)c2)n2nc(-c3ccccc3)nc2n1	-12%	-20%
CCc1ccc(C2c3[nH]c4ccccc4c3CCN2C(=O)CNC(N)=O)cc1 (stereo not drawn)	-7%	-7%
COc1ccc(-c2noc(N3CCC(C(=O)NCCCN4CCCC(C)C4)CC3)n2)cc1 (stereo not drawn)	-16%	i
COc1ccccc1OC(C)C(=O)Nc1ccc(S(=O)(=O)N2CCN(C)CC2)cc1 (stereo not drawn)	0%	-7%
CCN(CC)C(=O)Oc1ccc2ccccc2c1Cl	4%	-13%
CC1=C(C)CC(C(=O)NCC(=O)c2ccccc2)C(C(=O)O)C1 (stereo not drawn)	-9%	i
O=C(NCc1ccccc1Cl)C(=O)NCC1OCCCN1S(=O)(=O)c1cccs1 (stereo not drawn)	-7%	-9%
C=CCn1c(O)c(N=NC(=S)Nc2ccccc2F)c2cc(S(=O)(=O)N3CCOCC3)ccc21	-20%	-27%
CCOC(=O)C1(Cc2ccccc2)CCCN(C(=O)C=C(C)C)C1 (stereo not drawn)	-6%	i
N#CCCn1cc(/C=C/C(=O)O)c(-c2ccc(F)cc2)n1	-6%	i
CC(=O)OC1CC(OC(C)=O)[C@]2(C)C(CC(OC(C)=O)[C@]3(C)C2CC[C@@]2(C)C(c4ccoc4)C[C@H]4O[C@]432)C1(C)C (stereo partly drawn)	-19%	-23%
COc1ccc(-c2n(CC(=O)OC3CC(C)CCC3C(C)C)c3ccccc3[n+]2C)cc1 (stereo not drawn)	?	?
COC(=O)C1=C(C(=O)OC)[C@@H]2N(C)c3ccc(OC)cc3[C@@]23C[C@@H](C(=O)OC)N(S(=O)(=O)c2ccc(OC)cc2)C3=N1	-18%	i
CCOc1nc(Nc2ccc(Cl)cc2)nc(OCC)n1	-25%	-21%
O=C(C1CCCO1)N1CCN(S(=O)(=O)c2ccc(Cl)cc2)CC1 (stereo not drawn)	-7%	1%
CC(C)(CO)NS(=O)(=O)c1ccc2c(c1)C(=NO)c1cc(S(=O)(=O)NC(C)(C)CO)ccc1-2	-1%	-13%
